E coli growth – E. coli growth inhibition, primary screen, OD600. Escherichia coli growth, 23 h; hits give low values. 0.21% of 330,000 active. OD600 absorbance (concentration not given with the values);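 active = OD600 absorbance below the run mean of sample wells minus 3.6 SD, in any replicate, cut at about 0.56 in these data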;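 also: stock transfer was 300 nL into about 60 µL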
HNF4A DNA FP – change in binding of human HNF4A to DNA, primary screen, biochemical, fluorescence polarization, FITC-DNA; Hepatocyte nuclear factor 4-alpha (Homo sapiens), P41235; 1 h; activity change, % at 10 µM; 0.3% of 360,000 active; in the data active = activity change above about 30%, passing the limit was not always enough;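 also: controls were the assay level and a saturating level of protein; the project sought stronger binding though the title names inhibitors; some compounds called inactive have numbers as strong as hits; positive values seem to mean higher polarization but the record does not say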
Target sequence (P41235 whole entry, looked up): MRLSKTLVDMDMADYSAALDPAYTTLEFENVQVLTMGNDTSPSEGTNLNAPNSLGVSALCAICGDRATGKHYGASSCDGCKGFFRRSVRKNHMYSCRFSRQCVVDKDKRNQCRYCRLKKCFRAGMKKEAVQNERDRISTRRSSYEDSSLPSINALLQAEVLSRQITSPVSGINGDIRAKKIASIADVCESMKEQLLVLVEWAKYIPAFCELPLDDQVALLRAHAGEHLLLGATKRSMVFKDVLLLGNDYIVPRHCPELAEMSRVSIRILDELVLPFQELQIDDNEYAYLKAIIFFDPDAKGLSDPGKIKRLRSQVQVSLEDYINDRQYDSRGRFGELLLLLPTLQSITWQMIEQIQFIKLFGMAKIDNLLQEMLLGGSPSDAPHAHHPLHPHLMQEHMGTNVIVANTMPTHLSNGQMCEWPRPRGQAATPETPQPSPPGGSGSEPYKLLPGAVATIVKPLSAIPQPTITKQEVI
MLL AF4-AF9 inh – inhibitors of AF4 peptide binding to AF9, primary screen, biochemical, AlphaScreen, biotin-AF4 peptide, FLAG-AF9, single point. Protein AF-9 (Homo sapiens), P42568. inhibition, % at 10 µM. 0.47% of 350,000 active;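 active = every replicate reaching a set inhibition limit, whatever the replicate mean, cut at about 25% in these data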;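 also: 0% = plate neutral control median and 100% = total signal loss; the record names both 10 and 1 µM as test concentration; the first replicate is given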
Target sequence (P42568 whole entry, looked up): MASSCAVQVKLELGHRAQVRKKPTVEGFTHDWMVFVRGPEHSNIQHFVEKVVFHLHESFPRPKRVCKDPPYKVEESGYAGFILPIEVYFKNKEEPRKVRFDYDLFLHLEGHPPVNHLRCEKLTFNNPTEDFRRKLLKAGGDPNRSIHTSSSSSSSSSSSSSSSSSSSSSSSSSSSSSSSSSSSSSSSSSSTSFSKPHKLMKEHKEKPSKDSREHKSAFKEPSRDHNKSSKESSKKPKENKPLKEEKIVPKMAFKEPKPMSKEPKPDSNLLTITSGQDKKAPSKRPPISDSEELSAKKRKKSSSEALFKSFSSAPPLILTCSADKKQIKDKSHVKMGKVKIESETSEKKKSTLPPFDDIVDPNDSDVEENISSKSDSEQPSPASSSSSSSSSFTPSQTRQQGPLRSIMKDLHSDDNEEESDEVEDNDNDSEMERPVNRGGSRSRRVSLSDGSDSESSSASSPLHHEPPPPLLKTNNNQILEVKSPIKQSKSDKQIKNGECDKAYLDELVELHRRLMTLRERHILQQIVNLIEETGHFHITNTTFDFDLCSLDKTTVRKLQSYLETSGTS
rRNA inh HTS – reduced GFP signal of wild-type E. coli, primary screen, bacterial rRNA inhibitor project, GFP/RFP fluorescence, OD600, single point. E. coli WT GFP vs humanized-ribosome RFP mutants, 24 h; hits give low values; DMSO median 0, no signal -100. GFP signal change (wild-type ribosome), % (test concentration not listed). 1.6% of 350,000 active;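 active = significant combined selectivity score with lowered wild-type GFP, culture density cut under 30%, mutant RFP and density less affected; inactive = any of these conditions unmet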; also: one replicate is shown; some compounds called inactive have numbers as strong as hits
Vif TR-FRET – inhibitors of Vif binding to APOBEC3G peptide, primary screen, biochemical, TR-FRET, GST-Vif 1-94, biotin-A3G peptide, dose response retest (AID 1117319) | TR-FRET GST-Vif / biotin-A3G peptide binding; higher % means a stronger effect; test concentration not given here; strong numbers were not always called active | Virion infectivity factor (Human immunodeficiency virus type 1 group M subtype B (isolate … | 0.57% of 260,000 active | inhibition, %; hits with a dose series show IC50 in µM;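 active = above the screen mean plus three standard deviations and confirmed in dose response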;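 also: Vif residues 1-94 fused to GST binding biotinylated APOBEC3G peptide 110-148; 0% = full assay without inhibitor and 100% = GST in place of GST-Vif; retest series ran down from 100 µM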
FGF22 binding – binders of human FGF22 protein, primary screen, FGF22 synaptogenesis inhibitor project, biophysical, thermal shift, single point; Fibroblast growth factor 22 (Homo sapiens), Q9HCT0; recombinant FGF22 thermal shift, SYPRO orange fluorescence; percent of sucrose octasulfate shift, DMSO zero; calls only at 9.99 µM; 1.5% of 340,000 active; AID 651658, 2012;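 active = melting point raised past a set limit in the mean and every replicate; three in four hits are not shown here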
ALR H2O2 inh – inhibitors of human ALR sulfhydryl oxidase, primary screen, biochemical, H2O2 detection, HRP-luminol luminescence, single point. FAD-linked sulfhydryl oxidase ALR (Homo sapiens), P55789. purified ALR, DTT oxidation. inhibition, % (concentration not given with the values). 3.8% of 290,000 active. AID 485317, 2010;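 active = mean and each replicate at 75% or more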;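 also: stock transfer was 7.5 nL into about 7.5 µL; 0% = neutral wells and 100% = wells with inactivated enzyme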
rRNA inh HTS OD600 – further read-out of rRNA inh HTS, marked with its call; OD600 change, %; measured here: OD600 growth;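 optical density of the mix in the first replicate; 0 = DMSO median and -100 = no signal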
rRNA inh HTS RFP – second read-out of rRNA inh HTS, no call of its own (marks repeat the call); RFP signal change, %; measured here: RFP humanized mutant strains;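 first replicate; 0 = DMSO median and -100 = no signal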
Starred values were filed as active, the others as inactive.

Screening N=C1/C(=C/c2coc3ccccc3c2=O)C(=O)N=C2SC(c3ccco3)=NN12 returned E coli growth 0.71, HNF4A DNA FP 23 and ALR H2O2 inh 42.
`C[C@H](CO)N1C[C@H](C)[C@@H](CN(C)C(=O)c2ccncc2)OCc2ccccc2-c2ccccc2C1=O` gave MLL AF4-AF9 inh -0.3, rRNA inh HTS 1, FGF22 binding inactive, rRNA inh HTS OD600 -6 and rRNA inh HTS RFP -3.1.
Screening COc1ccc2cc3cc(C(=O)N4CCN(c5ccccc5)CC4)oc3nc2c1 returned E coli growth 0.69, HNF4A DNA FP -0.3, Vif TR-FRET 16% and ALR H2O2 inh -3.
CN1CCN(C(=O)C[C@@H]2CC[C@H]3[C@@H](COC[C@H](O)CN3C(=O)Nc3ccc4c(c3)OCO4)O2)CC1 was read as MLL AF4-AF9 inh -43, rRNA inh HTS 2, FGF22 binding inactive, rRNA inh HTS OD600 -4 and rRNA inh HTS RFP -1.5.
Screening Cc1ccccc1NC(=O)c1cc(S(=O)(=O)c2ccccc2)ccc1Cl returned E coli growth 0.67, HNF4A DNA FP 1.8, Vif TR-FRET -2% and ALR H2O2 inh 0.
`CCN(c1ccccc1)S(=O)(=O)c1ccc(OC)c(NC(=O)c2c(C)noc2C)c1` gave E coli growth 0.68, HNF4A DNA FP -1.0, MLL AF4-AF9 inh -26, rRNA inh HTS 7, Vif TR-FRET 4%, FGF22 binding inactive, rRNA inh HTS OD600 6 and rRNA inh HTS RFP 2.9.
For CCN1CCCC1CNC(=O)c1ccc(N2CCCC2=O)cc1 (centres undefined) the results were E coli growth 0.72, HNF4A DNA FP 9.1, Vif TR-FRET -2% and ALR H2O2 inh -4.
Screening CCC(=O)N1CCCC1(C)C(=O)Nc1cccc(Oc2ccccc2)c1 (centres undefined) returned HNF4A DNA FP 2.2, MLL AF4-AF9 inh -3.9, rRNA inh HTS 7, FGF22 binding inactive, rRNA inh HTS OD600 12 and rRNA inh HTS RFP -3.3.
O=C(c1ccc(=O)[nH]n1)N1CCN(S(=O)(=O)c2cccc(F)c2)CC1 was read as E coli growth 0.67, HNF4A DNA FP -2.5, MLL AF4-AF9 inh -0.8, rRNA inh HTS 15, Vif TR-FRET 18%, FGF22 binding inactive, rRNA inh HTS OD600 18 and rRNA inh HTS RFP -2.0.
`CCOc1cccc(-c2c(C(=O)N/N=C/c3cccs3)nnn2-c2nonc2N)c1` gave HNF4A DNA FP 1.7, MLL AF4-AF9 inh -2.4, rRNA inh HTS -7, FGF22 binding inactive, ALR H2O2 inh -8, rRNA inh HTS OD600 -12 and rRNA inh HTS RFP 0.0.
For COc1ccc(C(=O)C2CCCN(C(=O)c3ccc(C(C)=O)s3)C2)c(C)c1 (centres undefined) the results were E coli growth 0.69, HNF4A DNA FP -1.3, MLL AF4-AF9 inh 0.6, rRNA inh HTS 3, FGF22 binding inactive, rRNA inh HTS OD600 9 and rRNA inh HTS RFP -1.8.
For Cc1ccc[n+](CC(=O)/C=C2\N(C)c3ccccc3C2(C)C)c1 the results were E coli growth 0.69, HNF4A DNA FP 2.4, Vif TR-FRET -4% and ALR H2O2 inh -50.
`O=C(COC(=O)c1cccs1)Nc1cccc(S(=O)(=O)NC2=NCCCCC2)c1` gave E coli growth 0.69, HNF4A DNA FP 9.1, MLL AF4-AF9 inh -11, rRNA inh HTS 4, Vif TR-FRET 6%, FGF22 binding inactive, ALR H2O2 inh 1, rRNA inh HTS OD600 4 and rRNA inh HTS RFP 1.3.
For CNc1ccccc1C(C)(C)c1cc(-c2ccc(F)cc2)no1 the results were E coli growth 0.69, HNF4A DNA FP -1.9 and ALR H2O2 inh 0.
`O=C1CCCc2cc3c(cc21)CCCC3` gave E coli growth 0.71, HNF4A DNA FP 0.5, MLL AF4-AF9 inh -4.6, rRNA inh HTS 1, Vif TR-FRET -6%, rRNA inh HTS OD600 2 and rRNA inh HTS RFP -0.3.
`CCOC(=O)c1[nH]ncc1CN1CCCC(C(=O)c2ccc(OC)c(OC)c2)C1` (centres undefined) gave E coli growth 0.7, HNF4A DNA FP -0.6, MLL AF4-AF9 inh -1.6, rRNA inh HTS 8, Vif TR-FRET 8%, FGF22 binding inactive, ALR H2O2 inh -4, rRNA inh HTS OD600 9 and rRNA inh HTS RFP -0.6.
CC(C)C(=O)N1CCC1(C)C(=O)Nc1ccccc1OC(F)F (centres undefined) was read as HNF4A DNA FP 0.2, MLL AF4-AF9 inh -1.3, rRNA inh HTS -2, FGF22 binding inactive, rRNA inh HTS OD600 6 and rRNA inh HTS RFP 1.6.
N#C[C@@H]1[C@@H](c2ccc(C#Cc3ccccc3F)cc2)[C@H](CO)N1C(=O)c1cccnc1 was read as MLL AF4-AF9 inh -1.4, rRNA inh HTS 1, FGF22 binding inactive, rRNA inh HTS OD600 -1 and rRNA inh HTS RFP 7.9.
NNC(=O)COc1ccc(-c2n[nH]c(C(F)(F)F)c2-c2ccc(Br)cc2)c(O)c1 was read as E coli growth 0.67, HNF4A DNA FP 4.9 and ALR H2O2 inh 53.
For CCC(=O)Nc1ccc2c(c1)nc(CCN1CCN(C)CC1)n2C the results were E coli growth 0.68, HNF4A DNA FP 3.4, Vif TR-FRET 6% and ALR H2O2 inh -16.

The last two compounds of the part above come first, to join the parts.
NNC(=O)COc1ccc(-c2n[nH]c(C(F)(F)F)c2-c2ccc(Br)cc2)c(O)c1 was read as E coli growth 0.67, HNF4A DNA FP 4.9 and ALR H2O2 inh 53.
For CCC(=O)Nc1ccc2c(c1)nc(CCN1CCN(C)CC1)n2C the results were E coli growth 0.68, HNF4A DNA FP 3.4, Vif TR-FRET 6% and ALR H2O2 inh -16.
`Cc1csc(SCCn2c(N3CCOCC3)nc3c2c(=O)[nH]c(=O)n3C)n1` gave E coli growth 0.73, HNF4A DNA FP 1.5, MLL AF4-AF9 inh -2.0, rRNA inh HTS 6, Vif TR-FRET -2%, FGF22 binding inactive, ALR H2O2 inh -3, rRNA inh HTS OD600 14 and rRNA inh HTS RFP 0.8.
CC(=O)Nc1ccc(S(=O)(=O)N2CCN=C2SCc2ccc(F)cc2)cc1 was read as E coli growth 0.7, HNF4A DNA FP 1.6, MLL AF4-AF9 inh -6.6, rRNA inh HTS 6, Vif TR-FRET -2%, FGF22 binding inactive, ALR H2O2 inh 39, rRNA inh HTS OD600 -10 and rRNA inh HTS RFP -1.7.
COc1ccc(NC(=O)c2ccc(S(=O)(=O)NCc3cccnc3)cc2)cc1 was read as E coli growth 0.69, HNF4A DNA FP -3.5, MLL AF4-AF9 inh 0.4, rRNA inh HTS 3, Vif TR-FRET 1%, FGF22 binding inactive, ALR H2O2 inh -3, rRNA inh HTS OD600 3 and rRNA inh HTS RFP -1.4.
For C[C@H]1CN([C@@H](C)CO)C(=O)Cc2cc(NC(=O)C3CC3)ccc2O[C@@H]1CN(C)CC1CCCCC1 the results were MLL AF4-AF9 inh -0.1, rRNA inh HTS 1, FGF22 binding inactive, rRNA inh HTS OD600 -5 and rRNA inh HTS RFP -2.0.
O=[N+]([O-])c1cccnc1Oc1cc(Cl)c(Cl)cc1Cl was read as HNF4A DNA FP 0.8, MLL AF4-AF9 inh 4.1, rRNA inh HTS -10, Vif TR-FRET -4%, FGF22 binding inactive, rRNA inh HTS OD600 4 and rRNA inh HTS RFP -2.2.
Screening N#Cc1cccc(C(=O)OCC(=O)N2CCCc3ccccc32)c1 returned E coli growth 0.71, HNF4A DNA FP 5.5, MLL AF4-AF9 inh -1.3, rRNA inh HTS -1, Vif TR-FRET 0%, FGF22 binding inactive, ALR H2O2 inh 3, rRNA inh HTS OD600 1 and rRNA inh HTS RFP -1.4.
`CCOc1cc(C(=O)OCc2ccc([N+](=O)[O-])cc2)ccc1OCC(=O)N1CCOCC1` gave E coli growth 0.66, HNF4A DNA FP -1.3, MLL AF4-AF9 inh -3.6, rRNA inh HTS -12, Vif TR-FRET 2%, FGF22 binding inactive, ALR H2O2 inh 3, rRNA inh HTS OD600 -11 and rRNA inh HTS RFP -5.4.
For Cc1ccccc1C(=O)NC(=S)NCC1CCCO1 (centres undefined) the results were E coli growth 0.8, HNF4A DNA FP 2.1, Vif TR-FRET 4% and ALR H2O2 inh 2.
`CC(C)C#Cc1ccc([C@@H]2[C@@H](CO)N(C(=O)C3CCOCC3)[C@H]2C#N)cc1` gave MLL AF4-AF9 inh 1.1, rRNA inh HTS 5, FGF22 binding inactive, rRNA inh HTS OD600 13 and rRNA inh HTS RFP 0.7.
`COc1ccc(N2CCN(C(=O)COC(=O)c3ccc(Cl)nc3)CC2)cc1` gave E coli growth 0.71, HNF4A DNA FP -3.2, MLL AF4-AF9 inh -3.6, Vif TR-FRET 2%, FGF22 binding inactive and ALR H2O2 inh 17.
For O=C(C[C@@H]1CC[C@H]2[C@@H](COC[C@@H](O)CN2CC2CCOCC2)O1)NCc1ccc(Cl)cc1 the results were MLL AF4-AF9 inh -1.3, rRNA inh HTS 2, FGF22 binding inactive, rRNA inh HTS OD600 7 and rRNA inh HTS RFP 2.5.
For COc1ccccc1C1/C(=C(/O)c2ccc(C)cc2)C(=O)C(=O)N1CC(C)O (centres undefined) the results were HNF4A DNA FP 1.6, Vif TR-FRET 1% and ALR H2O2 inh 1.
For O=C1CSc2ccccc2N1 the results were E coli growth 0.71, HNF4A DNA FP -5.5, MLL AF4-AF9 inh 1.0, rRNA inh HTS 3, Vif TR-FRET -2%, FGF22 binding inactive, rRNA inh HTS OD600 9 and rRNA inh HTS RFP 4.0.
`O=C(COC(=O)c1cccc(Br)c1)Nc1ccc2[nH]c(=O)[nH]c2c1` gave E coli growth 0.71, HNF4A DNA FP -3.2, MLL AF4-AF9 inh -1.5, rRNA inh HTS 8, Vif TR-FRET 0%, FGF22 binding inactive, ALR H2O2 inh 1, rRNA inh HTS OD600 8 and rRNA inh HTS RFP -0.6.
COc1ccc(NC(=O)c2cccc(S(=O)(=O)N3CCN(C)CC3)c2)c(OC)c1 was read as E coli growth 0.69, HNF4A DNA FP 3.5, MLL AF4-AF9 inh 13, rRNA inh HTS 3, ALR H2O2 inh -23, rRNA inh HTS OD600 1 and rRNA inh HTS RFP 0.3.
CCCNC(=O)Nc1ccc2c(c1)OC[C@@H](C)N(Cc1ccncc1)C[C@H](C)[C@H](OC)CN(C)C2=O was read as MLL AF4-AF9 inh -14, rRNA inh HTS -7, FGF22 binding inactive, rRNA inh HTS OD600 -4 and rRNA inh HTS RFP 1.8.
Screening Cc1ccc(C)c(NC(=O)CN(C)C(=O)c2ccccc2Cc2ccccc2)c1 returned E coli growth 0.71, HNF4A DNA FP -3.0, MLL AF4-AF9 inh -1.1, rRNA inh HTS -10, Vif TR-FRET -8%, FGF22 binding inactive, ALR H2O2 inh -3, rRNA inh HTS OD600 -12 and rRNA inh HTS RFP 2.2.
`O=C(NC1CCS(=O)(=O)C1)C1C2CC3CC(C2)CC1C3` (centres undefined) gave E coli growth 0.65, HNF4A DNA FP -1.2, MLL AF4-AF9 inh -0.9, rRNA inh HTS 15, FGF22 binding inactive, ALR H2O2 inh 2, rRNA inh HTS OD600 6 and rRNA inh HTS RFP -0.4.
For COC(=O)c1cc(S(=O)(=O)NCC2CCN(Cc3ccc(F)cc3)CC2)cn1C the results were E coli growth 0.72, HNF4A DNA FP 1.4, MLL AF4-AF9 inh -0.7, rRNA inh HTS 8, FGF22 binding inactive, ALR H2O2 inh -5, rRNA inh HTS OD600 2 and rRNA inh HTS RFP 2.9.

Screening data: PubChem BioAssay, several laboratories

Only part of the results is shown; count on the stated rates, not on these rows.
